Screening data: PubChem, National Center for Advancing Translational Sciences (NCATS)
GLA inh pH 4.5 = inhibitors of human alpha-galactosidase A at pH 4.5; purified enzyme, 4-MU-alpha-Gal fluorescence, pH 4.5; activity change, negative = inhibition, % at 105 µM; 230,000 tested, under 10 active; AID 1467; inconclusive = small, poorly fitted or top-dose-only inhibition, or a rising curve; inactive = flat fitted curve, though single readings scatter; no compound was filed as active;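 note: 0% = full activity with enzyme and -100% = basal without enzyme; dose as in the result columns while the protocol names 77 µM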
Rango-impB inh = inhibitors of Rango-importin beta complex formation; 340,000 tested, 0.031% active; Q14974; Potency, µM (doses to about 92.2 µM), for inactives: top-dose inhibition of complex formation; AID 540263; Rango CFP/YFP FRET sensor + importin beta, 45 min; active = rising FRET ratio curve, often small or poorly fitted; inconclusive = mostly compound fluorescence or quenching in the first reads; inactive = flat curves in all reads;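 note: potency is the fitted concentration of half-maximal effect; 0% = DMSO wells and 100% = buffer wells lacking importin beta; nearly all actives have a fitted effect of over 15% in size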
Target sequence (Q14974 whole entry, looked up): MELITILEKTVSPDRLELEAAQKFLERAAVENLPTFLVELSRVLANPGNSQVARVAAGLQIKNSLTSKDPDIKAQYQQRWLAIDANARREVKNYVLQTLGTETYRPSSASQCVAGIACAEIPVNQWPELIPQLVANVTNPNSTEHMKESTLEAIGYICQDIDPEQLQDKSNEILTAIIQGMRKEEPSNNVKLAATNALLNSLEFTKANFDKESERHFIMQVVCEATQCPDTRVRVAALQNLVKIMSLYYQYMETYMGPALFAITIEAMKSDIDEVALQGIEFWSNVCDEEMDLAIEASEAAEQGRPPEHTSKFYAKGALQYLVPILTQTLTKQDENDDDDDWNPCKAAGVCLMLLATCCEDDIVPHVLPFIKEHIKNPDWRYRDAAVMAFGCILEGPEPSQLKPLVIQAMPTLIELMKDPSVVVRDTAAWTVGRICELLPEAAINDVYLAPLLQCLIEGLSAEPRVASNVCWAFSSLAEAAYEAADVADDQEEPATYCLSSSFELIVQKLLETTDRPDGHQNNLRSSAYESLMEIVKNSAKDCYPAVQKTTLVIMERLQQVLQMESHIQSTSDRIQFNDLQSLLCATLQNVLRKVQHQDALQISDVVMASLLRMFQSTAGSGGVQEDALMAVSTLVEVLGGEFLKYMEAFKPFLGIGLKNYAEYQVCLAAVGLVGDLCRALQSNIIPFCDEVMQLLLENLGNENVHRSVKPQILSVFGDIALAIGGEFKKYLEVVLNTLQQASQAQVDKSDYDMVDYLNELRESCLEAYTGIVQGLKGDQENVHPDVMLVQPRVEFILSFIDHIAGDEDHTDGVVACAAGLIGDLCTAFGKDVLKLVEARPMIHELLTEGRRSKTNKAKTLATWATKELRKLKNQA
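FRET biosensor (snurportin 1 IBB flanked by EYFP and cerulean), 50 nM, with compound 5 min, then 0.125 microM importin beta in PBS, 1 mM DTT, 0.02% Tween-20, 0.1% BSA. CFP/YFP ratio read after 45 min at room temperature; pre-read flags interference.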
miR-21 reporter = miR-21 reporter, rising signal. Potency, µM (series often up to 38.3 µM), for the others: top-dose reporter change, positive = more light. 340,000 tested, under 10 active. HeLa miR-21 FLuc reporter, luciferase, 48 h; active = well fitted rising curve with a large enough effect; inconclusive = small, poorly fitted or top-dose-only effect; inactive = no such curve, though single readings can be large or run the other way;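 note: % of control where 0% means no effect; miR-21 action dims this reporter so a rising signal means less miR-21 action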
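Using DMEM plus 10% FBS, HeLa miR-21-FLuc cells are incubated with test compounds (final up to about 40uM) for 48 hours; firefly luciferase signal is then imaged following reagent-mediated lysis.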
Rango release inh = prevents RanGTP from dissociating the Rango-importin beta complex. O95149+P62826. Biochemical FRET Rango-importin beta, RanGTP-induced dissociation. Potency, µM (doses to about 46.1 µM), inactives show at the top dose activity change, negative = inhibition. 340,000 tested, 0.071% active. AID 540253; active means falling FRET ratio curve, often poorly fitted, with flat reads before Ran was added; inconclusive means other falling curves, or compound fluorescence or quenching; inactive means flat or rising ratio curve;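 note: potency is the fitted concentration of half-maximal effect; % of control where 0% means no effect; nearly all actives have a fitted effect of over 45% in size; -100% = wells without RanGTP and RCC1; the record marks most hits as doubtful in a second field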
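Recombinant Rango FRET biosensor (EYFP–snurportin 1 IBB–cerulean CFP10) at 0.1 uM premixed with 0.25 uM importin beta in PBS, 1 mM DTT, 0.02% Tween-20, 0.1% BSA. Compound added 5 min; RanGTP-RCC1 (0.6 uM Ran, 2 mM GTP, 0.2 uM RCC1) then triggers release, read at 45 min.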
The depositor's hits bear a star; & = joins results of further samples.

Start of the listing, in advance:
For CCOC(=O)/C(C#N)=C1/C=Cc2ccccc2N1CC the results were GLA inh pH 4.5 -5, Rango-impB inh -0.2%, miR-21 reporter -41% and Rango release inh -13%.
`NC(=O)C1CCN(c2ccc(S(=O)(=O)N3CCCCC3)cn2)CC1` gave GLA inh pH 4.5 3, Rango-impB inh -0.1%, miR-21 reporter 0% and Rango release inh 4%.

This part in full, from the start:
For CCOC(=O)/C(C#N)=C1/C=Cc2ccccc2N1CC the results were GLA inh pH 4.5 -5, Rango-impB inh -0.2%, miR-21 reporter -41% and Rango release inh -13%.
`NC(=O)C1CCN(c2ccc(S(=O)(=O)N3CCCCC3)cn2)CC1` gave GLA inh pH 4.5 3, Rango-impB inh -0.1%, miR-21 reporter 0% and Rango release inh 4%.
Screening CC1CCCN(C(=O)C2CCN(S(=O)(=O)c3cccc4cccnc34)CC2)C1 (centres undefined) returned GLA inh pH 4.5 -3, Rango-impB inh -0.4%, miR-21 reporter -17% and Rango release inh 23%.
`CCN(CC)C(=O)C(=O)c1cc(C)n(-c2ccc(F)cc2)c1C` gave GLA inh pH 4.5 11, Rango-impB inh 2.7%, miR-21 reporter 4% and Rango release inh 2%.
CCOC(=O)N1CCC(NC(=O)C(CC(C)C)NC(=O)C2CCCCC2)CC1 (centres undefined) was read as GLA inh pH 4.5 -5, Rango-impB inh 3.1%, miR-21 reporter 2% and Rango release inh -3%.
For CCOC(=O)C1=C(c2ccc(O)cc2)NC(=O)NC1C (centres undefined) the results were Rango-impB inh -4.1% and Rango release inh -10%.
`Cc1c(Cl)cccc1NC(=O)N1CCN(C(=O)c2ccco2)CC1` gave Rango-impB inh -1.9%, miR-21 reporter 0% and Rango release inh -1%.
Screening COc1cccc(NS(=O)(=O)c2ccc3c(c2)NC(=O)CC(=O)N3)c1 returned Rango-impB inh -0.6%, miR-21 reporter 5% and Rango release inh 1%.
For O=C(OCc1ccc2c(c1)OCO2)c1cccc(S(=O)(=O)N2CCCCC2)c1 the results were GLA inh pH 4.5 -4, Rango-impB inh 0.7%, miR-21 reporter -11% and Rango release inh 1%.
Screening CCCNC(=O)COc1coc(CN2CCN(C(=O)c3ccco3)CC2)cc1=O returned Rango-impB inh 3.0% and Rango release inh 7%.
For CS(=O)(=O)c1ccc(Cl)c(NC(=O)CSc2nncn2-c2ccccc2)c1 the results were Rango-impB inh -0.5%, miR-21 reporter 0% and Rango release inh 0%.
`O=C1OCC(CC2=C(O)C(=O)OC2)=C1O` gave Rango-impB inh -2.8% and Rango release inh -5%.
Cc1ccc(S(=O)(=O)NC2c3cccc4cccc(c34)C2Sc2n[nH]c(N)n2)cc1 (centres undefined) was read as GLA inh pH 4.5 -3, Rango-impB inh -0.6%, miR-21 reporter 0% and Rango release inh -6%.
`COc1ccc(CCN2C(=O)CC(N3CCN(c4ccccn4)CC3)C2=O)cc1OC` (centres undefined) gave GLA inh pH 4.5 0, Rango-impB inh -2.7%, miR-21 reporter -1% and Rango release inh -1%.
CC(Sc1nncn1C)C(=O)Nc1cc(C(F)(F)F)ccc1N1CCOCC1 (centres undefined) was read as GLA inh pH 4.5 -6, Rango-impB inh -2.2%, miR-21 reporter -5% and Rango release inh -17%.
`CN(C)S(=O)(=O)n1cc(/C=C(\NC(=O)c2ccccc2F)C(=O)NCCCn2ccnc2)c2ccccc21` gave Rango-impB inh 0.9%, miR-21 reporter 9%&11% and Rango release inh -4%.
COc1ccc(C(=O)N=c2sc3c(C)ccc(OC)c3n2C)cc1 was read as GLA inh pH 4.5 3, Rango-impB inh -0.3%, miR-21 reporter -62% and Rango release inh 0%.
CC1NC(C)(C)Cc2c1ccc1ccccc21 (centres undefined) was read as GLA inh pH 4.5 3, Rango-impB inh -1.6%, miR-21 reporter 2% and Rango release inh 13%.
COc1ccc(C(=O)Nc2ccc(C(F)(F)F)n(C)c2=O)cc1 was read as GLA inh pH 4.5 -2, Rango-impB inh 5.0%, miR-21 reporter -47% and Rango release inh -10%.
For CCOc1ccc(C(=O)Nc2cc(C)c3c(=O)oc4ccccc4c3n2)cc1 the results were GLA inh pH 4.5 4, Rango-impB inh -6.5%, miR-21 reporter 1% and Rango release inh -4%.
C=CCC[C@H](Cc1ccc(F)cc1)C(=O)OC[C@H](Cc1c[nH]c2ccccc12)NC(=O)[C@H](CC=C)CC(=O)N[C@H](CO)Cc1ccccc1 was read as Rango-impB inh -6.1% and Rango release inh -11%.
O=C(/C=N/O)Nc1ccc(F)cc1 was read as GLA inh pH 4.5 9, Rango-impB inh 1.9%, miR-21 reporter -7% and Rango release inh 15%.
Screening c1cn(C23CC4CC(CC(C4)C2)C3)cn1 returned GLA inh pH 4.5 1, Rango-impB inh inconclusive, miR-21 reporter -15% and Rango release inh inconclusive.
`COc1ccc(OC)c(C(c2c(O)nc(SC)[nH]c2=O)c2c(O)nc(SC)[nH]c2=O)c1` gave Rango-impB inh 2.9%, miR-21 reporter -1% and Rango release inh 16%.
For O=C(C[n+]1cc(-c2ccccc2)n2c1CCC2)Nc1nc(-c2ccccc2)cs1 the results were GLA inh pH 4.5 0, Rango-impB inh 0.9%, miR-21 reporter -18% and Rango release inh -1%.
`Clc1cccc(Cl)c1C1Nc2cccc3cccc(c23)N1` gave Rango-impB inh -2.9%, miR-21 reporter 21% and Rango release inh -15%.
`CCN(CC)C(=O)[C@H]1C[C@H](CC(=O)NCCC2=CCCCC2)C(=O)N2CCc3c([nH]c4ccc(Cl)cc34)[C@]12C` gave Rango-impB inh 0.6% and Rango release inh 38%.
For Cc1ccc2c(c1)N(Cc1cccc(Cl)c1)C(=O)c1cccnc1O2 the results were GLA inh pH 4.5 -23, Rango-impB inh -3.7%, miR-21 reporter -8% and Rango release inh 0%.
`CCn1c2ccc(C)cc2c2nnc(SCCN3CCCCC3)nc21` gave Rango-impB inh 0.0%, miR-21 reporter -2% and Rango release inh 16%.
`CS(=O)(=O)N1CCc2nc(-c3ccccc3)sc2C1` gave Rango-impB inh -2.5%, miR-21 reporter -59% and Rango release inh 2%.
NC(=S)NC1CC2C=CC1C2 (centres undefined) was read as GLA inh pH 4.5 -3, Rango-impB inh inconclusive, miR-21 reporter 1% and Rango release inh -1%.
For COc1cc(C2/C(=C(/O)c3ccc(OCC(C)C)cc3)C(=O)C(=O)N2CCN(C)C)ccc1O (centres undefined) the results were GLA inh pH 4.5 5, Rango-impB inh -0.2%, miR-21 reporter -1% and Rango release inh -3%.
`COc1cc(OC)c(N2CC(C(=O)Nc3cccc(C(=O)NC4CC4)c3)CC2=O)cc1Cl` (centres undefined) gave Rango-impB inh 2.2% and Rango release inh -1%.
O=C(Nc1ccc(N2CCCCC2)c(Cl)c1)c1cccnc1 was read as GLA inh pH 4.5 4, Rango-impB inh 0.4%, miR-21 reporter -3% and Rango release inh -11%.
Screening COC(=O)c1ccc(C2c3c(oc4ccc(F)cc4c3=O)C(=O)N2CCO)cc1 (centres undefined) returned GLA inh pH 4.5 -9, Rango-impB inh -0.4%, miR-21 reporter -11% and Rango release inh 18%.
CCNc1ccc2c(Cl)cc(=O)oc2c1 was read as GLA inh pH 4.5 -8, Rango-impB inh inconclusive, miR-21 reporter 0% and Rango release inh inconclusive.
`CCN(CC)S(=O)(=O)c1ccc(Cl)c(NC(=O)c2ccccc2C)c1` gave GLA inh pH 4.5 6, Rango-impB inh -3.2%, miR-21 reporter -7% and Rango release inh 9%.
`COc1ccc(F)c(CN2CCC(n3nccc3NC(=O)CCCc3ccccc3)CC2)c1` gave Rango-impB inh -2.2%, miR-21 reporter 5% and Rango release inh 15%.
O=C(COC(=O)c1cc[n+]([O-])cc1)Nc1cc([N+](=O)[O-])ccc1Cl was read as Rango-impB inh -3.5% and Rango release inh 26%.
Screening CC(C)c1onc(C(=O)NCc2ccc(F)cc2)c1[N+](=O)[O-] returned GLA inh pH 4.5 2, Rango-impB inh 0.0%, miR-21 reporter -3% and Rango release inh 21%.
Screening CC(=O)c1cccc(CN2CCc3ccc(NC(=O)C4CCCO4)cc3C2)c1 (centres undefined) returned Rango-impB inh -5.9%, miR-21 reporter 2% and Rango release inh 0%.
Screening CC(=O)N1CC2(CC(=O)OC(C)C)CN(C(C)=O)CC(CC(=O)OC(C)C)(C1)C2=O returned GLA inh pH 4.5 -4, Rango-impB inh -4.3%, miR-21 reporter 1% and Rango release inh 5%.
`O=C(NCCc1ccccc1)C1CCN(Cc2ccccc2F)CC1` gave GLA inh pH 4.5 2, Rango-impB inh 2.8%, miR-21 reporter -9% and Rango release inh 35%.
For COc1ccc(/C(C)=N/NC(=O)CNC(=O)C2COc3ccccc3O2)c(OC)c1 (centres undefined) the results were GLA inh pH 4.5 -1, Rango-impB inh inconclusive, miR-21 reporter -1% and Rango release inh 0%.
`Cc1ccc([N+](=O)[O-])cc1N=Nc1c(-c2ccc([N+](=O)[O-])cc2)[nH]n(C(N)=S)c1=O` gave GLA inh pH 4.5 -2, Rango-impB inh -6.8%, miR-21 reporter inconclusive and Rango release inh 2%.
`CCc1nc(SCc2cccnc2)c2c(=O)n(C)c(=O)n(C)c2n1` gave GLA inh pH 4.5 -12, Rango-impB inh 0.2%, miR-21 reporter 0% and Rango release inh -19%.
CCOc1ccc2nc(SC(C)C(N)=O)[nH]c2c1 (centres undefined) was read as GLA inh pH 4.5 2, Rango-impB inh -1.8%, miR-21 reporter -18% and Rango release inh 0%.
`CCSc1ncc(C)cc1[N+](=O)[O-]` gave GLA inh pH 4.5 6, Rango-impB inh 9.5%, miR-21 reporter -6% and Rango release inh -7%.
Screening Cc1ccc2cccc(OCC(=O)NCc3ccco3)c2n1 returned GLA inh pH 4.5 6, Rango-impB inh -0.9%, miR-21 reporter 3% and Rango release inh -15%.
`N/C(Cc1nc(-c2ccc(F)cc2)cs1)=N\O` gave GLA inh pH 4.5 -2, Rango-impB inh 0.6%, miR-21 reporter -15% and Rango release inh -6%.
For CCOC(=O)c1cnc2c(C(F)(F)F)cccc2c1NCCCN1CCOCC1 the results were Rango-impB inh 5.7%, miR-21 reporter 4% and Rango release inh -17%.
`c1ccc(-c2csc(-c3ccc(-c4csnn4)cc3)n2)cc1` gave GLA inh pH 4.5 -3, Rango-impB inh -0.9%, miR-21 reporter -20% and Rango release inh 8%.
`CCOC(=O)c1c(C)[nH]c(C(=O)/C(C#N)=C/c2ccc(OC)c(OC)c2)c1C` gave GLA inh pH 4.5 -9, Rango-impB inh 4.8%, miR-21 reporter -53% and Rango release inh 1%.
Screening COc1cc(C2/C(=C(\O)c3ccc4c(c3)CC(C)O4)C(=O)C(=O)N2CCCn2ccnc2)cc(OC)c1OC (centres undefined) returned Rango-impB inh -0.9%, miR-21 reporter 2% and Rango release inh -14%.
CC(C)(C)NC(=O)/C=C/c1cccc(C(F)(F)F)c1 was read as GLA inh pH 4.5 7, Rango-impB inh 1.2%, miR-21 reporter -4% and Rango release inh -26%.
For Cn1c(SCc2ccccc2)nnc1-c1ccc2c(c1)OCO2 the results were GLA inh pH 4.5 0, Rango-impB inh 0.7%, miR-21 reporter -55% and Rango release inh 5%.
CC1CN(C(=O)c2cccc(COc3ccc(Br)cc3)c2)CC(C)O1 (centres undefined) was read as GLA inh pH 4.5 -2, Rango-impB inh -3.0%, miR-21 reporter -64% and Rango release inh 31%.
Screening CCCc1ncc(CN2CCC(C(=O)Nc3cccc(-c4cscn4)c3)CC2)cn1 returned Rango-impB inh 12%, miR-21 reporter 21% and Rango release inh 2%.
Screening O=C(CSc1nnc(-c2ccccc2)n1Cc1ccco1)Nc1ccc(S(=O)(=O)N2CCCC2)cc1 returned GLA inh pH 4.5 -15, Rango-impB inh -2.3%, miR-21 reporter 16% and Rango release inh -6%.
For COC1C(O)C(O)C(O)C(O)C1O (centres undefined) the results were GLA inh pH 4.5 1, Rango-impB inh 2.9% and Rango release inh -7%.
Screening O=C(N/N=C/C=C\c1ccccc1[N+](=O)[O-])c1ccco1 returned GLA inh pH 4.5 2, Rango-impB inh -4.8%, miR-21 reporter -6% and Rango release inh 0%.
`CCOC(=O)[C@H]1[C@H]2COc3ccc(C)cc3[C@@H]2N2C(=O)c3cc(Cl)ccc3NC(=O)[C@@]12C` gave Rango-impB inh -2.2% and Rango release inh inconclusive.
CCCCN(C)CCNC(=O)C(=O)c1c(C)[nH]c2ccccc12 was read as GLA inh pH 4.5 -3, Rango-impB inh 0.3%, miR-21 reporter 0% and Rango release inh -4%.

These rows are one share of the data; rates above refer to the full screens.
